# Screening results deposited in PubChem by ICCB-Longwood Screening Facility, Harvard Medical School.
# fixLJ activator: activators of Burkholderia fixLJ two-component system, primary screen, B. multivorans, GFP reporter | z-score (test concentration not listed) | B. multivorans fixK-promoter GFP reporter, 18 h; stronger effect = higher value | actives 0.3% (n = 29,000);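 active = replicate mean overnight rise in green fluorescent reporter signal, 3 or more SD over negative controls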;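 note: score is relative to vehicle wells of the plate; 300 nL library stock went into each well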
# An asterisk follows results filed as active.
structure,fixLJ activator
Cc1nnc(SCC(=O)N2CCC3(CC2)CC(C)(O)CCO3)o1 (stereo not drawn),-2.2
Cc1cccc2c1-c1sc(C(=O)Nc3ccccc3C(N)=O)cc1CO2,-1.2
CCOc1ccc(C(=O)N2CCCCC2CCN2CCOCC2)cc1 (stereo not drawn),-1.6
Cc1c(C(=O)Nc2ccc(-c3nc4cc(Cl)ccc4o3)cc2)oc2ccccc12,0.28
Cc1cc(N2CCC(NCCCc3ncc[nH]3)CC2)nc(N2CCCC2)n1,-0.1
COc1cccc2c1C1(CCN(C(=O)c3cnc(C4CC4)[nH]c3=O)CC1)OCC2,-0.05
CN1CC2CN(C(=O)c3ccc(CN4CCCCC4)cc3)C[C@@]2(C(=O)O)C1 (stereo partly drawn),-1.1
COc1cccc(CNC(=O)CCc2c(C)c3ccc(O)c(C)c3oc2=O)c1,-1.4
Cc1cc(C)cc(C(=O)Nc2cc(C(F)(F)F)ccc2N2CCN(c3ccccc3)CC2)c1,-0.44
COc1ccc(NC(=O)Cn2cc(C(=O)c3ccccc3)c(=O)c3cc(OC)ccc32)c(OC)c1,1.3
CCCCOc1ccc(Cn2c(=O)oc3ccc(C)cc32)cc1,-0.82
Cc1ccc(Nc2c(-c3cccnc3)nc3ccc(C)cn23)cc1,-1.3
O=C(Cn1cc2c(n1)CCCC2)Nc1cc(C(F)(F)F)ccc1Cl,-1.2
CCc1nnc(NC(=O)c2nc(SC)ncc2Cl)s1,1.7
COc1ccc(N2CCN(C(=O)CCc3c(C)nc4cc(-c5cccc(F)c5)nn4c3C)CC2)cc1,-2
CS(=O)(=O)c1ccc(NC(=O)N2CCCOC(Cn3cccn3)C2)cc1 (stereo not drawn),-0.97
Cn1cc(CCC(=O)N2CCOC3(CCN(C4CCSC4)CC3)C2)cn1 (stereo not drawn),0.03
COc1cc(Oc2cc(C(=O)NCCCSC)ccc2OC)ccc1CN,-0.82
Cc1ccc(CNC(=O)CSCc2nc(-c3ccc(Cl)cc3)oc2C)cc1,-1.1
COc1ccc(/C=C(\C#N)c2nc(-c3cc4c(ccc5ccccc54)oc3=O)cs2)cc1O,-0.41
O=C(CSc1oc(-c2ccc(F)cc2)nc1S(=O)(=O)c1ccccc1)NC1CCCCC1,-1.3
Cc1ccc(C(C(=O)O)N2CCCN(S(=O)(=O)N3CCCCC3)CC2)cc1 (stereo not drawn),-1.4
CC(=O)N1CCC2(CC1)OCCc1sc(C(=O)NC3CC3)cc12,-1.1
COc1ccc(C2C(C(=O)Nc3ccc(C)cc3C)=C(C)Nc3nc(SC)nn32)cc1OC (stereo not drawn),-2.3
CCOC(=O)CN(Cc1ccccc1)C(C(=O)NC1CCCCC1)c1ccc(OC)cc1 (stereo not drawn),-1.4
COc1ccc2ccccc2c1CNC(=O)N1CCN(C2CCNC2)CC1 (stereo not drawn),-0.67
COc1ccc(S(=O)(=O)N(CCc2ccccc2)CC(=O)NCc2ccccc2)cc1OC,-2.4
Cn1c(=O)c2c(c3ccccc31)OC(=O)CC2c1cccc(F)c1 (stereo not drawn),-0.98
CCS(=O)(=O)c1c(S(=O)(=O)CC)c2cc(C(C)(C)C)ccn2c1C(=O)c1ccc(F)cc1,-1.5
CCOc1ccc(C2C(C(=O)Nc3ccccc3)=C(C)Nc3nc(-c4ccccc4)nn32)cc1OC (stereo not drawn),-0.81

# Three of the compounds above, as labelled records.
Molecule: O=C(Cn1cc2c(n1)CCCC2)Nc1cc(C(F)(F)F)ccc1Cl
  fixLJ activator = -1.2
Molecule: CCc1nnc(NC(=O)c2nc(SC)ncc2Cl)s1
  fixLJ activator = 1.7
Molecule: COc1ccc(N2CCN(C(=O)CCc3c(C)nc4cc(-c5cccc(F)c5)nn4c3C)CC2)cc1
  fixLJ activator = -2

# Other compounds follow.
structure,fixLJ activator
CCOc1ccc(CCNC(=O)c2cc3c(s2)-c2ccccc2OC3)cc1OCC,-0.8
COCc1cc(CNC(=O)N(C)Cc2cc(C(C)(C)C)n[nH]2)[nH]n1,0.76
Cc1cnccc1NCCNC(=O)c1ccccc1OC(F)(F)C(F)F,-0.32
COc1ccc2c(c1)c(=O)c(C(=O)c1ccccc1)cn2CC(=O)Nc1ccc2c(c1)OCO2,-0.54
c1ccc(-c2noc(CCn3ccnc3C3CCCCC3)n2)nc1,0.61
COC1CN(C(=O)c2c(Cl)cccc2Cl)CC1Cc1cc(C)no1 (stereo not drawn),-2
Cc1cc(S(=O)(=O)NCCSc2nnc(C)s2)c(C)s1,-0.16
COc1ccc(Nc2cc(C(=O)NC3CCCC3)c3ccccc3n2)c(OC)c1,-0.5
CCOc1ccccc1NC(=O)CN1C(=O)CC(c2ccc(OC)c(OC)c2)Sc2ccccc21 (stereo not drawn),0.41
CC(=O)N1N=C(c2ccc(C)cc2)CC1c1cn(-c2ccccc2)nc1-c1cccs1 (stereo not drawn),-0.12
Cc1ccc(CNC(=O)c2cc3sccc3n2Cc2ccc(Cl)cc2)cc1,-0.67
O=C(c1cnn(Cc2ccccc2)c1)N1CCCCC1CCn1cccn1 (stereo not drawn),-1
CC(C)(O)CCc1cccc(C(=O)NCc2cccc3[nH]ccc23)c1,-1.7
COc1ccc2nc(NC(=O)c3cc(=O)c4cc(C)cc(C)c4o3)sc2c1,-1.1
Cc1cc(C)n(-c2nc3ccccc3nc2Nc2cccc(C(=O)NCCc3ccccc3)c2)n1,-1.4
CCCCOC(=O)c1ccc(NC(=O)c2cnc3ccc(C)cn3c2=O)cc1,-0.39
COc1cccc(CCC(=O)N2CC[C@@](O)(C3CCOCC3)C(C)C2)c1 (stereo partly drawn),0.12
Cn1ncc2c(NCCN3CCOC3=O)nc(-c3ccncc3)nc21,0.83
O=C(CC12CC3CC(CC(C3)C1)C2)NCCNC(=O)c1ccccc1Cl,-0.83
Cc1ccc(OCCn2c(COc3ccc(Cl)cc3)nc3ccccc32)cc1,-1.3
Cc1cccc(NC2=CC(c3cccc(Br)c3)N(c3cccc(C)c3)C2=O)c1 (stereo not drawn),1.5
CC(=O)c1c(C)n(-c2cccc(C)c2)c2ccc(OC(=O)COc3ccccc3)cc12,0.17
CCN(Cc1ccccc1)C(=O)c1cc2c(s1)-c1c(C)cccc1OC2,0.94
Cc1nnc2c(Nc3cccc(O)c3)nc3ccccc3n12,-0.15
CCOC(=O)c1ccc(NC(=O)CC2C(=O)N(c3ccc(F)cc3)C(=O)N2Cc2ccc(C)cc2)cc1 (stereo not drawn),-0.62
Cc1ccc(C(C)C)c(OCC(=O)Nc2cccc(-c3nc4ncccc4o3)c2)c1,-0.15
Cc1ccc(S(=O)(=O)n2nc(-c3ccco3)nc2NCc2ccccc2Cl)cc1,0.11
O=C1CN(C(=O)NCCC2CCN(Cc3ccccc3)C2)CCCN1 (stereo not drawn),-0.02
Cc1ccc(-n2c(=O)[nH]c3sc4c(c3c2=O)CCNC4)cc1C,-0.32
C=CCOc1ccc(C(=O)N(CC=C)Cc2ccncc2)cc1OCC,-2.3

# A run of entries from the list above, as a working copy:
structure,fixLJ activator
Cc1ccc(C(C)C)c(OCC(=O)Nc2cccc(-c3nc4ncccc4o3)c2)c1,-0.15
Cc1ccc(S(=O)(=O)n2nc(-c3ccco3)nc2NCc2ccccc2Cl)cc1,0.11
O=C1CN(C(=O)NCCC2CCN(Cc3ccccc3)C2)CCCN1 (stereo not drawn),-0.02
Cc1ccc(-n2c(=O)[nH]c3sc4c(c3c2=O)CCNC4)cc1C,-0.32
C=CCOc1ccc(C(=O)N(CC=C)Cc2ccncc2)cc1OCC,-2.3

# Continued:
structure,fixLJ activator
CCOC(=O)c1ccc(N2C(=O)c3n[nH]c(-c4ccco4)c3C2c2ccccc2OC)cc1 (stereo not drawn),-0.89
Cc1ccc(NCc2nc3ccccc3n2CCOc2ccccc2)cc1,-0.54
CCc1ccccc1NC(=O)c1nc2nc(C)cc(C(F)F)n2n1,-0.48
Cc1ccc(S(=O)(=O)NCCCNC(=O)CCc2c(C)nc(=O)[nH]c2C)cc1,-1.4
NC(=Nc1ccccc1)NC(=O)c1nc(Cl)c(N)nc1N,-1.6
CC(C)CC(=O)C1CCCN(C(=O)c2ccc(NC3CCNCC3)nc2)C1 (stereo not drawn),-0.89
CC(NC(=O)CN1C(=O)COc2ccc(S(=O)(=O)N3CCCCCC3)cc21)c1ccccc1 (stereo not drawn),-1.8
COc1ccc(-c2nc(CSCC(=O)NCCc3ccccc3)c(C)o2)cc1,-0.6
O=C(c1cn(CCOc2ccccc2F)c2ccccc12)C1CCCCC1,-0.62
CN(C)C(=O)c1c(NC(=O)c2ccccc2F)sc2c1CCCC2,-1.1
Cc1coc2c1c(C)cc1oc(=O)c(CC(=O)NCc3ccc(Cl)cc3)c(C)c12,-1.9
CCCOc1ccc(CNC(=O)C2CCN(c3nn4c(=O)cc(C)nc4s3)CC2)cc1,0.43
COc1ccc(CCNC(=O)c2ccc(Cn3c(=O)c4ccccc4n(Cc4ccccc4Cl)c3=O)cc2)cc1OC,-2
CCN(CC)C(=O)c1ccc(Nc2nnc(-c3ccc(C)c(S(=O)(=O)NC)c3)c3ccccc23)cc1,-4.3
CCCCc1ccc(NC(=O)c2cc3c(=O)n4ccccc4nc3s2)cc1,-0.72
COc1cccc(NC(=O)CSc2nc3ccccc3n2C)c1,-2.1
COc1ccccc1OCc1cc(C(=O)N(C)CCC(C)C)n[nH]1,-1.4
COc1ccc(-n2c(-c3ccc(Cl)cc3)cc3c2CC(C)(C)CC3=O)c(OC)c1,0.07
CCCN1C(=O)NC(CC(=O)NCc2nc(CSC)no2)C1=O (stereo not drawn),-1.3
Cc1ccsc1CN(C(=O)c1oc2cc(Br)ccc2c1C)C1CCS(=O)(=O)C1 (stereo not drawn),-1.8
COc1ccccc1-c1cc(C(F)(F)F)nc(S(=O)(=O)CCCC(=O)Nc2ccccc2F)n1,0.22
CCOC(=O)C(Cc1c[nH]c2ccccc12)NC(=O)COc1ccc(Cl)c(C)c1 (stereo not drawn),-1.6
Cc1cnn(CCC(=O)N2CCC3OCc4cnnn4C3C2)c1 (stereo not drawn),-2.7
O=C(Nc1cc(-c2nc3ccccc3o2)ccc1Cl)c1cccc2c(Cl)cccc12,-1.5
CCOC(=O)Cn1c(-c2cccs2)cc2cc(Cl)ccc21,-1.1
CC1(C(=O)Nc2cccc(C(F)(F)F)c2)Cc2ccccc2C(=O)O1 (stereo not drawn),-1.3
CC(C)(C)C(=O)NCCC1CN(Cc2ccccn2)CCO1 (stereo not drawn),-0.71
Cc1ccccc1Nc1c(-c2c[nH]c3ccccc23)nc2cccc(C)n12,0.72
Cc1ccccc1Nc1c2c(nc3nncn13)CCC2,-1.9
O=C(O)CCc1ccc(-c2ccccc2)n1-c1ccc(C(=O)O)cc1,0.46
O=C(NCc1nc2ccc(F)cc2[nH]1)C1CNCC(C(=O)N2CCOCC2)C1 (stereo not drawn),-1.2
COC(=O)c1ccccc1NC(=O)CCc1c(C)nc2cc(-c3ccc(Cl)cc3)nn2c1C,0.43
Cc1ccc(C(C)(C)C)c(OCC(=O)Nc2ccc(Cl)cc2C(=O)c2ccccc2)c1,-1.6
Cc1ccc(NC(=O)NCCc2noc(CO)n2)cc1N1CCCC1=O,-0.42
CCc1ccccc1N1CC(c2nc3ccccc3n2CCCCOc2ccccc2)CC1=O (stereo not drawn),5.9*
O=C1C2=C(Nc3ccccc3SC2c2ccc(C(F)(F)F)cc2)c2ccccc21 (stereo not drawn),1.4
CC1(C)Cc2nc(N3CCOCC3)ncc2C(Nc2ccnc3ccccc23)C1 (stereo not drawn),1.1
O=C(NC1COCC1Cc1ccnc2ccccc12)C1CC=CC1 (stereo not drawn),0.21
CCOc1ccc(NC(=O)CC2C(=O)N(c3ccc(C)cc3)C(=O)N2CCC2=CCCCC2)cc1 (stereo not drawn),-1.9
O=C(CCCCCn1c(=O)c2sccc2n(Cc2ccc(Cl)cc2)c1=O)NCc1ccc2c(c1)OCO2,1.5
CC(=O)Nc1ccc(F)c(NC(=O)N(C)CCCc2nccn2C)c1,0.43
Cc1cccn2c3c(c(=O)nc12)C(c1cccc(F)c1)CC(=O)N3 (stereo not drawn),-0.42
CC(=O)c1c(C)nn(CC(=O)NC(C)c2nc(-c3ccccc3C)no2)c1C (stereo not drawn),0.43
CC1CCCN(c2ccc(Cl)cc2NC(=O)CCn2cnnc2)C1 (stereo not drawn),-0.41
COc1ccc(CC(=O)Nc2sc3c(c2C(=O)Nc2ccc(C)cc2)CCCCC3)cc1,0.85
Cc1cc(NC(=O)c2ccc3c(c2)OCCO3)cc(-c2nc3ccccc3o2)c1O,0.08
CCCNC(=O)c1cc(NC(=O)N(C)Cc2ncc(C)[nH]2)ccc1Cl,-0.89
COc1ccc(C(=O)N2CC(=O)Nc3ccc(F)cc3C2c2ccc(F)cc2)c(OC)c1 (stereo not drawn),-0.89
COc1cc(C(=O)Nc2cc3c(cc2C)n(C)c(=O)c(=O)n3C)cc(OC)c1OC,0.22
Cc1nn(-c2ccccc2)c2sc(C(=O)Nc3cccc(Cl)c3)cc12,-0.61
O=C1CCCN1CCCC(=O)N1CCC2OCc3cnnn3C2C1 (stereo not drawn),0.1
CCN1CCN(Cc2c(O)ccc3oc(C)c(C(=O)Nc4cccc(Cl)c4C)c23)CC1,-0.29
CCCN(C(=O)c1cc2c(=O)n(CC)c3ccccc3c2s1)c1ccccc1F,-1.1
CCOc1ccc(NC(=O)NCCCN2CCN(c3ccc(F)cc3)CC2)cc1,-0.3
Cc1ccc(CNS(=O)(=O)c2c(C)nc3scc(C)n3c2=O)cc1,0.52

# Taken from above:
# Value for CC(=O)c1c(C)nn(CC(=O)NC(C)c2nc(-c3ccccc3C)no2)c1C (stereo not drawn) under fixLJ activator: 0.43
# Value for Cc1c(C(=O)Nc2ccc(-c3nc4cc(Cl)ccc4o3)cc2)oc2ccccc12 under fixLJ activator: 0.28
# Value for CCc1ccccc1NC(=O)c1nc2nc(C)cc(C(F)F)n2n1 under fixLJ activator: -0.48

# This is a subset (hit frequency here may not be typical).
